E coli growth: E. coli growth inhibition, primary screen, OD600. OD600 absorbance (test concentration not listed). AID 1053175, 2014. Escherichia coli growth, 23 h; stronger effect = lower value. hit rate 0.21% among 330,000;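 active = OD600 absorbance below the run mean of sample wells minus 3.6 SD, in any replicate, cut at about 0.56 in these data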;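 note: stock transfer was 300 nL into about 60 µL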
AF4-AF9 inh: inhibitors of AF4 peptide binding to AF9, primary screen, biochemical, AlphaScreen, biotin-AF4 peptide, FLAG-AF9, single point; inhibition, % at 10 µM; Protein AF-9 (Homo sapiens), P42568; hit rate 0.47% among 350,000;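 active = every replicate reaching a set inhibition limit, whatever the replicate mean, cut at about 25% in these data; inconclusive = mean inhibition reaches that limit but some replicates miss it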;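 note: 0% = plate neutral control median and 100% = total signal loss; the record names both 10 and 1 µM as test concentration; the first replicate is given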
RanGTP-Imp inh: inhibitors of RanGTP-importin-beta interaction, primary screen, biochemical, FRET, CFP-Ran, YFP-importin-beta, homogeneous | Ran GTPase (GTP-bound) - importin-beta complex | cell-free CFP-Ran/YFP-importin-beta FRET ratio | inhibition, % (no concentration beside the values) | hit rate 1.1% among 300,000 | AID 2216, 2009;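 active = most replicates above 15%; inconclusive = exactly half above 15%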;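 note: 0% = DMSO wells and 100% = Ran loaded with GDP instead of GTP; wells of about 40 µL received 100 nL stock; the first replicate is given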
UCH37 inh: inhibitors of human UCH37 deubiquitinase, primary screen, biochemical, Ub-AMC cleavage, fluorescence; purified proteasome/UCH37; inhibition, % (test concentration not listed); hit rate 0.33% among 330,000;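 active = mean of two replicates above 20%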;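 note: 0% = compound-free wells with enzyme and 100% = wells lacking proteasome; stock transfer was 100 nL into about 20 µL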
Target sequence (Q9Y5K5 whole entry, looked up): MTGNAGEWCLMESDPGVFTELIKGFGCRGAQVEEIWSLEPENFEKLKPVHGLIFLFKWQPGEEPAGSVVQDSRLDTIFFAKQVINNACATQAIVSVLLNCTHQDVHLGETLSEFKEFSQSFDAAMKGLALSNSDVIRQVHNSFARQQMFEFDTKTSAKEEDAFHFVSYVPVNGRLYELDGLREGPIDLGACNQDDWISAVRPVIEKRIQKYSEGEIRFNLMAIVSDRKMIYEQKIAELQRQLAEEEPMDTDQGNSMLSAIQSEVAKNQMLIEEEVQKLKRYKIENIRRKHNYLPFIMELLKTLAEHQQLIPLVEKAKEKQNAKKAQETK
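assay system = human UCH37 enzyme supplied as purified proteasome complex | amount = proteasome at 0.15 nM in the dispensed enzyme solution | schedule = 30 min compound-proteasome preincubation then 25 min substrate reaction, room temperature | measured by = fluorescence, ex 355 nm, em 460 nm | benchmarks = no-proteasome wells (full inhibition) and compound-free wells (no inhibition)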
HNF4A DNA FP: change in binding of human HNF4A to DNA, primary screen, biochemical, fluorescence polarization, FITC-DNA | Hepatocyte nuclear factor 4-alpha (Homo sapiens), P41235 | 1 h | activity change, % at 10 µM | hit rate 0.3% among 360,000; in the data active = activity change above about 30%, passing the limit was not always enough;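 note: controls were the assay level and a saturating level of protein; the project sought stronger binding though the title names inhibitors; some compounds called inactive have numbers as strong as hits; positive values seem to mean higher polarization but the record does not say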
Target sequence (P41235 whole entry, looked up): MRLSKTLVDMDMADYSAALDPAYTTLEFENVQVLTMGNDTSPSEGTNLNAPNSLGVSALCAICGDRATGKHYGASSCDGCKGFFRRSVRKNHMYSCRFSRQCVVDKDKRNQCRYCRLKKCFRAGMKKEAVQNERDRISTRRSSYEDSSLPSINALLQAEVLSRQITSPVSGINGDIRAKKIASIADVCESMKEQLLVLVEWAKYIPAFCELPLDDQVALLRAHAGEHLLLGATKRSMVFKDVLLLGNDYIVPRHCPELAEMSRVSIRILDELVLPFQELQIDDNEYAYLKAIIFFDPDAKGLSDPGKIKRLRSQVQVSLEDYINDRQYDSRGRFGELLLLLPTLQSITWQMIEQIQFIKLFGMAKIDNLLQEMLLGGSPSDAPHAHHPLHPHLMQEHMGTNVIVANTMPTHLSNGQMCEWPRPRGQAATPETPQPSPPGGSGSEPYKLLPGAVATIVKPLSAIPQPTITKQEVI
Vif A3G: inhibitors of Vif binding to APOBEC3G peptide, primary screen, biochemical, TR-FRET, GST-Vif 1-94, biotin-A3G peptide, dose response retest (AID 1117319) | TR-FRET GST-Vif / biotin-A3G peptide binding; higher % means a stronger effect; test concentration not given here; strong numbers were not always called active | inhibition, %, or IC50 in µM where a hit was titrated | hit rate 0.57% among 260,000 | Virion infectivity factor (Human immunodeficiency virus type 1 group M subtype B (isolate …;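 active = above the screen mean plus three standard deviations and confirmed in dose response; inconclusive = results disagree or hit not tested in dose response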;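 note: Vif residues 1-94 fused to GST binding biotinylated APOBEC3G peptide 110-148; 0% = full assay without inhibitor and 100% = GST in place of GST-Vif; retest series ran down from 100 µM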
FGF22 binding: binders of human FGF22 protein, primary screen, FGF22 synaptogenesis inhibitor project, biophysical, thermal shift, single point. Fibroblast growth factor 22 (Homo sapiens), Q9HCT0. recombinant FGF22 thermal shift, SYPRO orange fluorescence; percent of sucrose octasulfate shift, DMSO zero. calls only at 9.99 µM. hit rate 1.5% among 340,000. AID 651658, 2012;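 active = melting point raised past a set limit in the mean and every replicate; inconclusive = no clear call; three in four hits are not shown here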
Target sequence (Q9HCT0 whole entry, looked up): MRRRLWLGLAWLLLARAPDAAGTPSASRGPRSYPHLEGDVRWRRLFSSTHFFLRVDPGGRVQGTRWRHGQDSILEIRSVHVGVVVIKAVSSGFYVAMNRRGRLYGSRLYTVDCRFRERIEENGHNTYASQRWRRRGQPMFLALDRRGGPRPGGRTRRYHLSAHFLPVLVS
Active calls of the source: *; i = inactive; ? = inconclusive; . = no result given; & = joins results of further samples. An excerpt; count on the stated rates, not on these rows.

SMILES	E coli growth	AF4-AF9 inh	RanGTP-Imp inh	UCH37 inh	HNF4A DNA FP	Vif A3G	FGF22 binding
Cc1ccc(NC(=O)CSc2ncnc3ccccc23)cc1S(=O)(=O)N1CCCCC1	0.72	.	2.7	3.3	-0.4	4%	.
Cc1cc(Br)cc(Cl)c1OCC(=O)N1CCN(C(=O)c2ccco2)CC1	0.69	?	.	0.9	-0.6	2%	i
C=CCn1c(SCc2c(C)noc2C)nc2sc3c(c2c1=O)CCCC3	0.7	.	5.1	3.1	-1.6	?	.
CCc1nc2ccc(C(=O)N3CCCCC3)cn2c1N(CCC(C)C)CCN(C)C	.	-1.3	.	.	-8.9	.	i
C1=C[C@H]2CCCN3CC[C@@H]([C@@H]2[C@]32CO2)[C@H]1CCOCc1ccccc1	.	2.6	.	.	-0.2	.	i
CCOC(=O)CC(=O)CSc1nc2c(cc1C#N)CCC2	0.81	.	16*	-60	-0.5	20%	.
COc1ccccc1-n1c(CNC(=O)c2cccs2)n[nH]c1=S	0.7	-5.2	-1.9	6.4	-0.8	.	i
COc1ccccc1NC(=O)/C(C#N)=C/c1cccn1C	0.68	3.7	-0.1	1.7	4.2	.	.
O=C(Nc1ccc2nc3ccccc3nc2c1)c1ccccc1	0.67	.	-26	-8.1	-4.8	.	.
CC(C)c1nnc(-c2ccc(Cl)cc2)c(N(C)C)n1	0.68	.	6.7	5.8	0.9	-4%	.
CCCn1nnc(NC(=O)c2sc3ccccc3c2Cl)n1	0.65	.	-0.3	2.9	1.1	31%	.
COc1cccc(/C=C/C(=O)OCC(=O)Nc2cccc(S(=O)(=O)N3CCCCC3)c2)c1OC	.	.	2.5	1.8	-2.5	-6%	.
CCc1cccc(OC2OC(CO)C(O)C(O)C2NC(C)=O)c1 (stereo not given)	0.68	-2.8	-3.6	1.2	-1.0	23%	i
COc1nccnc1NS(=O)(=O)c1ccc(NC(=S)NC(=O)c2ccccc2F)cc1	0.64	0.2	2.0	5.5	5.7	16%	i
CCc1ccc(NC(=O)C(C)OC(=O)C2CCC(=O)N2)cc1 (stereo not given)	0.67	0.6	-1.6	-1.0	2.6	.	i
COc1ccccc1NC(=O)Nc1nnc(CC(=O)Nc2cccc(C)c2)s1	0.72	-15	5.0	4.9	5.3	10%	i
O=c1oc2ccccc2c2c1ncn2CCN1CCOCC1	0.65	.	7.4	3.8	1.6	18%	.
O=C(Nc1ccccc1)OCCOc1ccc(Br)cc1	0.69	-1.4	-2.2	1.1	-1.9	.	i
COc1cccc(C(=O)Nc2ccc(NC(=O)Cc3ccccc3)cc2)c1	0.73	0.2	-4.5	-1.9	1.8	-6%	i
Cc1ccc(NC(=O)CS(=O)CC(=O)N2CCN(c3ccccc3)CC2)cc1 (stereo not given)	0.71	-2.4	0.1	2.7	1.1	.	i
CC(NS(=O)(=O)c1ccc(CCC(=O)N2CCN(C)CC2)cc1)c1ccccc1 (stereo not given)	0.71	.	2.1	3.1	-3.0	?	.
CC1=C/C(=N\OS(=O)(=O)c2ccccc2)C=CC1=O	.	.	1.1	.	1.3	17µM*	.
N#CC(=C1C=C(Br)C(=NO)C=C1Cl)c1ccc(Cl)cc1	.	?	.	.	-2.9	23%	i
Cc1ccn2c(CN3CCOCC3)c(-c3ccccc3)nc2c1	0.72	.	-3.0	-2.6	-0.6	2%	.
OC(COC1CCCCC1)CN1CCCCC1 (stereo not given)	0.67	-0.2	-2.3	1.6	0.3	.	i

Continuation.
SMILES	E coli growth	AF4-AF9 inh	RanGTP-Imp inh	UCH37 inh	HNF4A DNA FP	Vif A3G	FGF22 binding
Cc1ccccc1NC(=O)Cc1nc(COC(=O)COc2ccc(C(C)(C)C)cc2)cs1	0.68	0.5	.	1.4	3.4	-8%	i
C=CCOc1ccc(C2C(C#N)=C(N)N(Nc3ccccc3)C3=C2C(=O)CC(C)(C)C3)cc1OC (stereo not given)	0.74	.	7.2	-5.3	2.4	3%	.
COC(=O)Cn1c(CCS(=O)(=O)c2ccc(C)c(C)c2)nc2ccccc21	0.64	.	-2.2	-1.3	0.5	-3%	.
Cn1c(=O)n(C)c2cc(NC(=O)Cc3ccccc3[N+](=O)[O-])ccc21	0.66	-3.5	0.5	3.7	-3.4	.	i
COc1ccc(Nc2cc(Cl)nc(N)n2)cc1	0.67	-0.9	-3.9	0.3	1.8	0%	i
CCOc1ccc(NC(=O)c2ccc3c(SCC(=O)O)c4c(nc3c2)CCCC4)cc1	0.65	-4.2	1.5	3.6	0.9	3%	i
O=S(=O)(c1ccc2ccccc2c1)N1CCN(C(=S)Nc2ccc(F)cc2)CC1	0.7	.	0.8	1.8	4.2	20%	.
CCOC(=O)c1c(C)c(C(=O)NCc2ccco2)c(C)n1Cc1ccccc1	0.74	8.6	-3.3	0.9	3.4	10%	i
O=c1[nH]n(-c2ccccc2Cl)c(=O)c2ccccc12	0.67	-2.3	-0.8	1.4	2.6	-2%	i
CCCCNC(=O)N(O)C1N(/N=C/c2cccnc2)C(=S)SC1(C)C (stereo not given)	.	-2.3	-2.1	.	-2.3	.	i
COc1ccc(OC)c(NC(=O)CSc2nnc(CNC(=O)COc3ccc(Cl)cc3)o2)c1	0.68	.	-4.1	0.5	-1.3	0%	.
CC(C)(C#N)NC(=O)C(=O)c1c(-c2ccccc2)cc2ccccn12	0.68	6.6	-2.8	2.7	-2.5	.	i
Cc1ccc(C(=O)Nc2ccccc2N2CCCC2)s1	0.68	10	.	3.5	-5.1	-4%	i
Cc1ccc2c(Cl)cc(Cl)c(OCc3c(C)noc3C)c2n1	0.75	.	-0.9	5.2	-2.2	2%	.
N#Cc1c(N)nc(Sc2ccc(Cl)cc2)c(C#N)c1-c1ccccc1Cl	0.69	.	8.1	-3.3	-4.3	-220%	i
CCc1cccc(CC)c1NC(=O)CSc1nc2ccc(N3C(=O)C4C5C=CC(C5)C4C3=O)cc2s1 (stereo not given)	0.7	.	-1.6	-0.1	4.1	-5%	.
CN1CCN(CC(=O)Nc2cc(N(C)C)nc3ccccc23)CC1	0.67	-10	0.5	-128	1.0	21%	i
CC(=O)Nc1ccc(-c2csc(NC(=O)C3CCN(S(=O)(=O)c4cccs4)CC3)n2)cc1	0.68	.	2.1	3.3	4.5	6%	.
CC1CCc2c(sc3nc(CN4CCOCC4)nc(N4CCc5ccccc5C4)c23)C1 (stereo not given)	0.66	.	-2.3	-6.3	2.3	8%	.
COc1cccc(C(=O)Nc2ccc(C3CC3(Cl)Cl)cc2)c1 (stereo not given)	0.71	-0.7	0.3	2.4	-0.3	7%	i
CC(C)n1c(SCC(=O)Nc2ccc(N3CCOCC3)cc2)nnc1-c1ccco1	0.67	0.8	5.0	3.2	0.5	7%	i
CCc1ccccc1NC(=S)NCCSc1ccc(Cl)cc1	0.68	0.5	12	1.3	-3.6	.	i
Cn1c(-c2ccc3c(c2)OCO3)cnc1NCc1ccccc1	0.72	.	1.0	-1.6	7.0	0%&-6%	.
CCC(NC(C)C)C(O)c1ccc(O)c(O)c1 (stereo not given)	.	0.9	4.9	1.5	3.0	-2%	i
Cc1cccc(COc2ccc(/C=N/NC(=O)c3nnn(-c4nonc4N)c3C)cc2)c1	.	-7.7	-1.7	.	-0.7	.	i

Single records, as listed above. Screens in order: E coli growth, AF4-AF9 inh, RanGTP-Imp inh, UCH37 inh, HNF4A DNA FP, Vif A3G, FGF22 binding
CCCCNC(=O)N(O)C1N(/N=C/c2cccnc2)C(=S)SC1(C)C (stereo not given) is listed as ., -2.3, -2.1, ., -2.3, ., i
OC(COC1CCCCC1)CN1CCCCC1 (stereo not given) is listed as 0.67, -0.2, -2.3, 1.6, 0.3, ., i
CCOc1ccc(NC(=O)c2ccc3c(SCC(=O)O)c4c(nc3c2)CCCC4)cc1 is listed as 0.65, -4.2, 1.5, 3.6, 0.9, 3%, i
Cc1cc(Br)cc(Cl)c1OCC(=O)N1CCN(C(=O)c2ccco2)CC1 is listed as 0.69, ?, ., 0.9, -0.6, 2%, i
O=C(Nc1ccc2nc3ccccc3nc2c1)c1ccccc1 is listed as 0.67, ., -26, -8.1, -4.8, ., .

Next entries follow:
SMILES	E coli growth	AF4-AF9 inh	RanGTP-Imp inh	UCH37 inh	HNF4A DNA FP	Vif A3G	FGF22 binding
COc1ccc(Cl)cc1C(=O)N1CCN(Cc2ccc3c(c2)OCO3)CC1	0.65	2.9	-1.3	3.0	3.5	.	i
CCN(CC(=O)Nc1c(F)cccc1F)C(=O)/C=C/c1ccc2c(c1)OCO2	0.69	1.6	2.4	-35	1.1	-3%	i
CNS(=O)(=O)c1cnccc1N1CCN(c2cccc(Cl)c2)CC1	0.7	.	0.0	1.7	-0.2	1%	.
O=C(Nc1nnc(SCC(=O)N2CCOCC2)s1)c1ccccc1	0.73	-0.8	-1.7	7.7	1.6	-1%	i
CCN=C(NCC)SC1CC(=O)N(c2ccc(OCC)cc2)C1=O (stereo not given)	0.76	-2.0	2.1	4.1	1.4	-1%	.
Cc1ccc(C2CC2/C(=N/O)c2ccc(F)cc2)cc1 (stereo not given)	.	1.5	-4.4	.	-1.5	.	i
COc1ccccc1NC(=O)c1nn(C)cc1Br	0.74	.	-1.4	3.3	4.2	-1%	.
Cc1cccc(OCCCC(=O)NNC(=O)CCN2CCN(c3ccccc3)CC2)c1	0.63	4.6	1.4	-0.2	-2.6	2%	i
CC12CCC3(CC1CCC1OC12)OCCO3 (stereo not given)	.	-3.3	.	.	-5.4	0%	i
Cc1cc(C=O)c(C)n1-c1ccc(NC2CCCC2)c([N+](=O)[O-])c1	0.7	21	6.8	3.4	-5.7	.	i
O=C(NCc1ccc(F)cc1)Nc1cccc([N+](=O)[O-])c1	0.65	-1.8	2.5	3.8	1.1	-1%	i
Cc1cc(C)n2nc(SCC(=O)N(CCC#N)c3ccccc3F)nc2n1	0.67	-0.2	.	-1.2	-1.7	5%	i
COc1ccc(C(=O)CCc2ccccc2)cc1	0.65	-2.3	3.6	3.3	0.9	0%	i
CC(C)OC(=O)C(C)Oc1ccc(C(=O)NCCc2ccccc2)cc1 (stereo not given)	0.69	.	1.6	2.2	-0.7	-4%	.
Cc1ccc2nc(SCC(=O)O)nc(C)c2c1	0.62	.	-4.4	-2.4	-6.0	20%	.
O=C(CSc1nc(=O)n2ccccc2n1)N1N=C(c2cccs2)CC1c1ccc(F)cc1 (stereo not given)	0.68	1.9	-2.3	5.4	1.1	-1%	i
O=C(CN1C(=O)NC(c2ccc(F)cc2)C1=O)NC1CCCCC1 (stereo not given)	0.74	.	.	4.9	2.9	.	.
O=C(Cn1cccc1C(=O)c1ccccc1)NCc1ccc2c(c1)OCO2	0.68	.	-1.4	1.1	1.6	1%	.
NS(=O)(=O)c1ccc(CNC(=O)c2ccc3c(=O)n4c(nc3c2)CCC4)cc1	0.67	-6.6	0.2	-14	-1.6	9%	i
Cc1cc(OC(C)C(=O)NC2CCN(Cc3ccccc3)CC2)c2c(C)cc(=O)oc2c1 (stereo not given)	0.68	.	0.4	-85	0.8	.	.
COc1ccc(NC(=O)CS(=O)(=O)c2cn(CC(=O)N(C(C)C)C(C)C)c3ccccc23)c(OC)c1	0.7	-0.7	.	-1.5	1.3	20%	i
CC(=O)Nc1cccc(NC(=O)Nc2ccc(C(C)=O)cc2)c1	0.7	.	-4.1	5.0	0.8	5%	.
CCOc1ccc(N2CSC3=C(C#N)C(c4ccco4)CC(=O)N3C2)cc1 (stereo not given)	0.71	11	6.1	1.0	1.3	0%&9%	i
OC(COCc1ccccc1)CN1CCN(c2ccccc2F)CC1 (stereo not given)	0.71	.	-1.8	3.2	0.9	-1%	.
